Source: PubChem BioAssay
VLA-4 inh = inhibition in a human VLA-4 binding assay. P13612. VLA-4 expressing cells, ligand binding flow cytometry. inhibition, % (about 7 µM as worked out from the volumes in the protocol). actives 0.2% (n = 330,000); in the data active means inhibition above about 50%
MEX-5 binding = C. elegans MEX-5 TCR-2 RNA binding activity | MEX-5/FITC-TCR2 RNA binding, fluorescence polarization; stronger effect = lower value | activity score (negative = inhibition of binding), % at 10 µM | actives 0.38% (n = 300,000);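 active means inhibition past about -25% in most replicates, and total fluorescence under double the plate's negative control median, limit read from the data; inconclusive means replicates evenly split on the limit, or fluorescence at least double controls; inactive means too little inhibition in most replicates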;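 further: 0% = DMSO and -100% = 5 µM competing unlabeled TCR2 RNA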
CIT2 TOR yeast = yeast TOR pathway CIT2-GFP modulation; S. cerevisiae CIT2-GFP strain, flow cytometry, 3 h; 100 means same as DMSO wells; GFP response vs DMSO, % at 10 µM; actives 0.065% (n = 320,000);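 active means GFP response relative to DMSO above a set limit, near the screen mean plus 3 SD, cut at about 150% in these data; inconclusive means Fewer than 70 cells measured for a yeast strain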;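 further: ratio of well median GFP fluorescence to mean of DMSO wells on the plate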
CR mimetic SO = lowers age-related superoxide in aged yeast cells; S. cerevisiae aged cells, superoxide DHE fluorescence; stronger effect = lower value; superoxide response (% of plate mean), % at 10 µM; actives 0.18% (n = 330,000); AID 2690;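 active means superoxide response under a set limit, about three screen SD below normal, cut at about 65% in these data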;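 further: yeast aged for seven days with compound at 30 °C before DHE staining; 100% = average MFI of all compound-treated wells on the plate with controls excluded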
AGP1 TOR yeast = alters AGP1-GFP fluorescence in TOR pathway yeast screen | GFP response vs DMSO, % at 10 µM | actives 0.02% (n = 320,000) | S. cerevisiae AGP1-GFP multiplex flow cytometry, 3 h; GFP as percent of DMSO wells;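 active means GFP response relative to DMSO above a set limit, near screen average plus 3 SD, cut at about 150% in these data; inconclusive means fewer than 70 cells counted for the yeast strain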;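 further: median GFP channel fluorescence of the gated AGP1 strain per well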
GLD-1 RNA inh = GLD-1-TGE RNA interaction inhibition (C. elegans). Q17339. purified GLD-1 + fluorescein TGE RNA, fluorescence polarization. inhibition, % at 5.96 µM. actives 0.44% (n = 320,000). AID 2280;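 active means percent inhibition above a per-plate cutoff, the plate mean of test compounds plus 3 SD, cut at about 30% in these data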;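 further: 0% = DMSO wells with GLD-1 and probe and 100% = wells lacking GLD-1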
GRK2 aptamer HTS = human GRK2 inhibition via aptamer displacement; P25098; bead flow cytometry, FAM-aptamer displacement from GRK2; inhibition of aptamer binding, % at 10 µM; actives 0.59% (n = 330,000); AID 488847;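 active means inhibition of aptamer binding above 40%, roughly 3 SD of noise, on plates passing a quality check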;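 further: median bead fluorescence of bound FAM aptamer so fluorescent compounds give negative values; no value below 0 was filed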
Target sequence (P25098 whole entry, looked up): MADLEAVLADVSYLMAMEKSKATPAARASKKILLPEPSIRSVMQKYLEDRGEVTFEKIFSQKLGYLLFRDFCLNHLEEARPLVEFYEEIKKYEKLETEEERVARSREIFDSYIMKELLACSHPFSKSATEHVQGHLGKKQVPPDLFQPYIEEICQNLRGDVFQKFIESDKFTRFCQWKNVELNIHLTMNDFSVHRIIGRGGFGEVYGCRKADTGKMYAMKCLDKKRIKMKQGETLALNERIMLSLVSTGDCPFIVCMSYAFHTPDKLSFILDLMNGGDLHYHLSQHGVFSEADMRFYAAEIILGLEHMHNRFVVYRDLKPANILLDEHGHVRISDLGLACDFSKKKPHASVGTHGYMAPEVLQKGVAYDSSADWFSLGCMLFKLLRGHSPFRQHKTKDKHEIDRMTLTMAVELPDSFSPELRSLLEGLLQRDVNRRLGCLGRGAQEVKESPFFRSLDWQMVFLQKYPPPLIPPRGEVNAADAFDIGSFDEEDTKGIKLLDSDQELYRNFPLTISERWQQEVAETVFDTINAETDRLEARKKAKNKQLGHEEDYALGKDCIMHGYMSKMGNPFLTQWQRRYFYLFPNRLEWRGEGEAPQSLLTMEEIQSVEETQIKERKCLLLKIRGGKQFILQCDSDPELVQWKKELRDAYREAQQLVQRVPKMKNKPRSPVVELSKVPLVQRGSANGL
* = called active by the depositor; ? = inconclusive; nt = not tested or not shown.

1	CCOc1ccc(OCC(=O)Nc2ccccc2C(F)(F)F)cc1
2	Cc1cc(C(F)F)n2ncc(C(=O)NC3CCCCCC3)c2n1
3	Cc1cc(NC(=O)C2CCN(S(=O)(=O)c3cccs3)CC2)no1
4	COCCCNC(=O)C(=O)N/N=C/c1ccc(OCC(=O)Nc2cccc(Cl)c2C)c(OC)c1
5	Cc1cccc(C)c1NC(=O)CSc1nnc(-c2ccco2)n1N
6	Cc1sc(NC(=O)C2C3C=CC(C3)C2C(=O)O)c(C(N)=O)c1-c1ccc(C(C)C)cc1 (stereo not given)
7	COc1ccc(OC)c2sc(NC(=O)C(C)C)nc12
8	O=C(NNC(=O)c1ccccc1F)c1cccc(-n2cccc2)c1

| screen / no. | 1 | 2 | 3 | 4 | 5 | 6 | 7 | 8 |
| --- | --- | --- | --- | --- | --- | --- | --- | --- |
| VLA-4 inh | -1 | 9 | -97 | 14 | 9 | 21 | 9 | -2 |
| MEX-5 binding | -1.0 | -1.7 | 0.4 | nt | -0.8 | 0.8 | 1.5 | -2.9 |
| CIT2 TOR yeast | 88 | 103 | 91 | 112 | 83 | 95 | 96 | 83 |
| CR mimetic SO | 91 | 99 | 103 | 94 | 104 | 97 | 108 | 95 |
| AGP1 TOR yeast | 97 | 106 | 97 | 105 | 94 | 94 | 92 | 86 |
| GLD-1 RNA inh | -2 | -2 | -6 | 6 | 1 | 1 | -7 | -1 |
| GRK2 aptamer HTS | 2 | 0 | 0 | 0 | 0 | 5 | 0 | 36 |

9	COc1ccc(/C(C)=N/NC(=O)c2ccc(NS(=O)(=O)c3cccs3)cc2)cc1
10	Cc1ccc(OCCCC(=O)Nc2ccc(S(N)(=O)=O)cc2)cc1
11	CCN(Cc1ccccc1)C(=O)c1nn(-c2ccc(OC)cc2)c(=O)c2c1c1ccccc1n2C
12	CCOC(=O)N1CCC(=C2c3ccc(Cl)cc3CCc3cccnc32)CC1
13	O=C(Nc1nc2ccc([N+](=O)[O-])cc2s1)c1ccncc1
14	COc1nc(N(c2ccccc2)c2ccccc2)nc(-n2ccnc2)n1
15	COc1ccc(CNc2nc(NCc3ccc(OC)cc3)n(C(=O)c3ccccc3[N+](=O)[O-])n2)cc1
16	COC(=O)COc1cccc(NC(=O)c2ccc(Cl)cc2)c1

| screen / no. | 9 | 10 | 11 | 12 | 13 | 14 | 15 | 16 |
| --- | --- | --- | --- | --- | --- | --- | --- | --- |
| VLA-4 inh | 0 | -1 | 5 | -7 | -5 | -15 | 8 | 2 |
| MEX-5 binding | -2.4 | 0.7 | -0.2 | 1.9 | -1.5 | 1.7 | 0.8 | 0.5 |
| CIT2 TOR yeast | 117 | 104 | 93 | 88 | 109 | 115 | 94 | 86 |
| CR mimetic SO | 99 | 97 | 91 | 111 | 99 | 107 | 119 | 92 |
| AGP1 TOR yeast | 110 | 101 | 98 | 87 | 104 | 107 | 94 | 93 |
| GLD-1 RNA inh | -3 | -13 | 3 | 1 | -2 | -7 | 6 | -5 |
| GRK2 aptamer HTS | 1 | 0 | 1 | 0 | 2 | 0 | 0 | 7 |

17	CC(=O)NS(=O)(=O)c1cccnc1Nc1ccc(Cl)cc1
18	C[C@]12CCC(=O)C=C1CC[C@@H]1[C@@H]2C(=O)C[C@@]2(C)[C@H]1CC[C@]2(O)C(=O)CO
19	COc1ccc(N2C(=O)CN=C2Nc2nc(C)cc(C)n2)cc1OC
20	Cc1ccccc1Nc1nc(-c2ccccc2)c(C(=O)Nc2cccnc2)s1
21	COC(=O)Cc1cc(=O)oc2cc(O)ccc12
22	O=C(Nc1c(C(=O)NCc2ccco2)cnn1-c1ccccc1)c1cccc(F)c1
23	O=C(O)CC(O)C(=O)O (stereo not given)
24	CCOC(=O)/C(=N\O)C1=NC(C)(C)Cc2ccccc21

| screen / no. | 17 | 18 | 19 | 20 | 21 | 22 | 23 | 24 |
| --- | --- | --- | --- | --- | --- | --- | --- | --- |
| VLA-4 inh | 8 | 1 | 7 | 8 | 13 | 10 | 6 | 46 |
| MEX-5 binding | 0.9 | -1.3 | -0.3 | 2.2 | -1.2 | 1.1 | nt | 0.8 |
| CIT2 TOR yeast | 92 | 82 | 106 | 84 | 93 | 92 | 102 | 91 |
| CR mimetic SO | 111 | 96 | 104 | 109 | 88 | 108 | 101 | 101 |
| AGP1 TOR yeast | 93 | 86 | 107 | 88 | 96 | 94 | 102 | 95 |
| GLD-1 RNA inh | 2 | 6 | -5 | 11 | 1 | -2 | -8 | 2 |
| GRK2 aptamer HTS | 2 | 0 | 0 | 0 | 1 | 2 | 0 | 0 |

Copied from above: nos. 17–18
17	CC(=O)NS(=O)(=O)c1cccnc1Nc1ccc(Cl)cc1
18	C[C@]12CCC(=O)C=C1CC[C@@H]1[C@@H]2C(=O)C[C@@]2(C)[C@H]1CC[C@]2(O)C(=O)CO

| screen / no. | 17 | 18 |
| --- | --- | --- |
| VLA-4 inh | 8 | 1 |
| MEX-5 binding | 0.9 | -1.3 |
| CIT2 TOR yeast | 92 | 82 |
| CR mimetic SO | 111 | 96 |
| AGP1 TOR yeast | 93 | 86 |
| GLD-1 RNA inh | 2 | 6 |
| GRK2 aptamer HTS | 2 | 0 |

(next part)
25	CCC(=O)Nc1cccc(NC(=O)COc2ccc(OC)cc2)c1
26	CCOC(=O)c1c(CC(C)C)csc1N
27	CCOC(=O)Cc1csc(NC(=O)c2sc3nc4ccc(C)cc4cc3c2N)n1
28	Nc1nc(Cl)nc2c1ncn2[C@H]1C[C@H](O)[C@@H](CO)O1
29	c1ccc(-c2nc(CSc3n[nH]c(-c4cccs4)n3)cs2)cc1
30	Nc1c(C(=O)Nc2ccc(Cl)c(Cl)c2)sc2nc(-c3cccnc3)ccc12
31	CCCCCSc1nc(O)cc(=O)[nH]1
32	COc1ccc(NC(=O)CC2C(=O)N(C)C(=S)N2Cc2ccncc2)cc1 (stereo not given)

| screen / no. | 25 | 26 | 27 | 28 | 29 | 30 | 31 | 32 |
| --- | --- | --- | --- | --- | --- | --- | --- | --- |
| VLA-4 inh | -44 | -44 | -75 | 30 | -12 | 5 | -9 | -13 |
| MEX-5 binding | -0.9 | -0.1 | -0.2 | -0.2 | -0.3 | -9.4 | -9.3 | -0.7 |
| CIT2 TOR yeast | 89 | 84 | 88 | 78 | 87 | 107 | 95 | 100 |
| CR mimetic SO | 112 | 94 | 104 | 109 | 97 | 106 | 90 | 106 |
| AGP1 TOR yeast | 92 | 92 | 93 | 82 | 96 | 107 | ? | 103 |
| GLD-1 RNA inh | 10 | 0 | -15 | 2 | 6 | 6 | -3 | -1 |
| GRK2 aptamer HTS | 0 | 0 | 0 | 3 | 0 | 0 | 0 | 0 |

33	CC(C)Oc1cccc(C(=O)NC(=S)Nc2ccc3c4c(cccc24)CC3)c1
34	Cc1cccc(C(=O)Nc2ccc(O)cc2)c1
35	CC1CCN(c2ccc(C(F)(F)F)cc2N)CC1
36	COC(=O)NC(Nc1sc2c(c1C(N)=O)CCCC2)(C(=O)OC)C(F)(F)F (stereo not given)
37	Oc1cccc(/C=N/c2c(-c3ccco3)nc3ccccn23)c1
38	Cc1cc(C(F)F)n2ncc(C(=O)NCc3ccc(F)cc3)c2n1
39	O=C(N/N=C/c1cn(-c2ccccc2)nc1-c1cc2ccccc2o1)c1ccncc1
40	Cc1ccc2[nH]c(=O)c(-c3noc(CC(C)C)n3)cc2c1
41	CCN(CC)CCOCCOc1ccc(Cl)c2ccccc12
42	CN1[C@@H]2CC[C@H]1CC(OC(=O)[C@H](CO)c1ccccc1)C2 (stereo not given in full)

| screen / no. | 33 | 34 | 35 | 36 | 37 | 38 | 39 | 40 | 41 | 42 |
| --- | --- | --- | --- | --- | --- | --- | --- | --- | --- | --- |
| VLA-4 inh | -40 | 0 | 1 | -18 | 6 | 32 | -13 | -3 | -2 | 17 |
| MEX-5 binding | 1.9 | -0.8 | 3.4 | -1.4 | -11 | nt | 1.7 | 1.9 | -2.4 | 2.8 |
| CIT2 TOR yeast | 107 | 92 | 98 | 97 | 100 | 82 | nt | 97 | 101 | 98 |
| CR mimetic SO | 103 | 98 | 102 | 105 | 103 | 99 | 120 | 112 | 94 | 112 |
| AGP1 TOR yeast | 106 | 107 | 92 | 101 | 96 | 100 | nt | 95 | 112 | 96 |
| GLD-1 RNA inh | -12 | 1 | 6 | -6 | 27 | -8 | 4 | -1 | -3 | 0 |
| GRK2 aptamer HTS | 1 | 10 | 0 | 0 | 3 | 1 | 0 | 1 | 0 | 0 |

Grouped by structure: those above with a halogen.
1	CCOc1ccc(OCC(=O)Nc2ccccc2C(F)(F)F)cc1
2	Cc1cc(C(F)F)n2ncc(C(=O)NC3CCCCCC3)c2n1
4	COCCCNC(=O)C(=O)N/N=C/c1ccc(OCC(=O)Nc2cccc(Cl)c2C)c(OC)c1
8	O=C(NNC(=O)c1ccccc1F)c1cccc(-n2cccc2)c1
12	CCOC(=O)N1CCC(=C2c3ccc(Cl)cc3CCc3cccnc32)CC1
16	COC(=O)COc1cccc(NC(=O)c2ccc(Cl)cc2)c1
17	CC(=O)NS(=O)(=O)c1cccnc1Nc1ccc(Cl)cc1
22	O=C(Nc1c(C(=O)NCc2ccco2)cnn1-c1ccccc1)c1cccc(F)c1
28	Nc1nc(Cl)nc2c1ncn2[C@H]1C[C@H](O)[C@@H](CO)O1
30	Nc1c(C(=O)Nc2ccc(Cl)c(Cl)c2)sc2nc(-c3cccnc3)ccc12

| screen / no. | 1 | 2 | 4 | 8 | 12 | 16 | 17 | 22 | 28 | 30 |
| --- | --- | --- | --- | --- | --- | --- | --- | --- | --- | --- |
| VLA-4 inh | -1 | 9 | 14 | -2 | -7 | 2 | 8 | 10 | 30 | 5 |
| MEX-5 binding | -1.0 | -1.7 | nt | -2.9 | 1.9 | 0.5 | 0.9 | 1.1 | -0.2 | -9.4 |
| CIT2 TOR yeast | 88 | 103 | 112 | 83 | 88 | 86 | 92 | 92 | 78 | 107 |
| CR mimetic SO | 91 | 99 | 94 | 95 | 111 | 92 | 111 | 108 | 109 | 106 |
| AGP1 TOR yeast | 97 | 106 | 105 | 86 | 87 | 93 | 93 | 94 | 82 | 107 |
| GLD-1 RNA inh | -2 | -2 | 6 | -1 | 1 | -5 | 2 | -2 | 2 | 6 |
| GRK2 aptamer HTS | 2 | 0 | 0 | 36 | 0 | 7 | 2 | 2 | 3 | 0 |

35	CC1CCN(c2ccc(C(F)(F)F)cc2N)CC1
36	COC(=O)NC(Nc1sc2c(c1C(N)=O)CCCC2)(C(=O)OC)C(F)(F)F (stereo not given)
38	Cc1cc(C(F)F)n2ncc(C(=O)NCc3ccc(F)cc3)c2n1
41	CCN(CC)CCOCCOc1ccc(Cl)c2ccccc12

| screen / no. | 35 | 36 | 38 | 41 |
| --- | --- | --- | --- | --- |
| VLA-4 inh | 1 | -18 | 32 | -2 |
| MEX-5 binding | 3.4 | -1.4 | nt | -2.4 |
| CIT2 TOR yeast | 98 | 97 | 82 | 101 |
| CR mimetic SO | 102 | 105 | 99 | 94 |
| AGP1 TOR yeast | 92 | 101 | 100 | 112 |
| GLD-1 RNA inh | 6 | -6 | -8 | -3 |
| GRK2 aptamer HTS | 0 | 0 | 1 | 0 |

The list is partial; rates above refer to the full screens.
